# Compound activity (PubChem)
# TRPML1 blocker: inhibitors of human TRPML1 channel; activity change, negative = inhibition, % (test concentration not listed); TRPML1-inducible cells, Ca2+ dye fluorescence, FDSS; stronger effect = lower value; inhibition of EC80 agonist-evoked calcium signal; Q9GZU1; AID 624415; 0.02% of 390,000 active; in the data active means activity change below about -50%; inconclusive means about -30% to -50%; inactive means above about -30%;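 further: stimulus is agonist 54-4 at its EC80 concentration; on the % scale 0 is the no-effect control and ±100 the full control effect; compound concentration not given in the record; the text of the record puts the active cut at -80%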
#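 TRPML1-DL cells, Tet-induced overnight (~16 h, 37 °C) at 1,500 cells/well, were loaded with Ca8 no-wash dye plus quencher for 45-90 min at room temperature. Compounds were pinned during FDSS kinetic reading; agonist 54-4 at EC80 (4 uM final) then added.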
# PINK1 modulator: changes PINK1 expression; PINK1 immunofluorescence, high-content cytometry, 24 h; Potency, µM (highest dose often 76.6 µM), for the others: top-dose activation (PINK1 increase), usual class: activators; 0.2% of 410,000 active; AID 624263; active = well fitted activation curve with a large enough effect; inconclusive = small, poorly fitted or top-dose-only effect; inactive = flat fitted curve, though single readings scatter; cell line not stated here;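 further: potency means the concentration at half of the fitted maximal effect; % of control where 0% means no effect; nearly all actives have a fitted effect of over 65% in size; a mitochondrial uncoupler was the plate control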
#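 Compound titrations (5 concentrations, 24 h) on a stable cell line; DMSO and CCCP controls. Endpoint: fixed-cell PINK1 immunofluorescence with mitochondrial, cell and nuclear markers, scanned by microplate cytometer.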
# TRPML1 ag: human mucolipin-1 channel agonism. Q9GZU1. TRPML1-expressing cells, Ca2+ dye fluorescence, FDSS; host cell line not named in the record; reference of the full effect not given here. activation, % (test concentration not listed). 0.12% of 410,000 active. AID 624414; in the data active = activation above about 50%; inconclusive = about 30% to 50%; inactive = below about 30%; further: 0% is about no effect; the text of the record puts the active cut at 80%
#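 Tet-induced TRPML1-DL cells, 1,500 per well, cultured overnight, were loaded with a no-wash Ca2+ dye for 45–90 min. Calcium fluorescence was recorded on the FDSS for 110 s after compound addition, before the EC80 agonist (4 uM 54-4) was added.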
# D2 ag: agonists of human D2 dopamine receptor (beta-arrestin); DiscoveRx PathHunter D2 beta-arrestin, luminescence, 90 min; 100% = 57 uM dopamine signal; activation, % (no concentration beside the values); 0.084% of 360,000 active; AID 624465; in the data active = activation above about 40%; inconclusive = about 15% to 40%; inactive = below about 15%; further: compound concentration not given in the record; the text of the record calls up to 30% inactive
#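 DiscoveRx PathHunter D2 beta-arrestin cells (2,100/well) attached overnight, then compound-stimulated 90 min at 37 C in HBSS/10 mM HEPES/0.1% Tween-20 buffer; beta-galactosidase complementation read by luminescence after 1 h at ambient temperature. Dopamine 57 uM final (EC100) as control.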
# D2 potentiator: potentiates the human D2 dopamine receptor allosterically; potentiation, % (concentration not given with the values); 0.23% of 360,000 active; P14416; DiscoveRx D2 beta-arrestin cells, luminescence, 90 min; 100% = 57 uM dopamine signal; active = potentiation of 50% or more; inconclusive = 30% to 50%; inactive = 30% or less;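 further: compound concentration not given in the record; tested on top of an EC20 dose of dopamine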
#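 PathHunter beta-arrestin assay in DiscoveRx D2 cells. Compounds were added with an EC20 of dopamine (50 nM final) for 90 min at 37 deg C. Luminescence was read 1 h after detection reagent, with 57 uM dopamine as the EC100 control.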
# Six1-Eya2 blk: Six1/Eya2 interaction inhibition. Q15475+O00167. 0.56% of 360,000 active. activity change, % (test concentration not listed). AID 651725. AlphaScreen GST-Six1/His-Eya2 binding, biochemical; stronger effect = lower value; control for the full effect not named in the record; in the data active = activity change below about -65%; inconclusive = about -30% to -65%; inactive = above about -30%; further: on the % scale 0 is the no-effect control and ±100 the full control effect; compound concentration not given in the record
# Target sequence (O00167 whole entry, looked up): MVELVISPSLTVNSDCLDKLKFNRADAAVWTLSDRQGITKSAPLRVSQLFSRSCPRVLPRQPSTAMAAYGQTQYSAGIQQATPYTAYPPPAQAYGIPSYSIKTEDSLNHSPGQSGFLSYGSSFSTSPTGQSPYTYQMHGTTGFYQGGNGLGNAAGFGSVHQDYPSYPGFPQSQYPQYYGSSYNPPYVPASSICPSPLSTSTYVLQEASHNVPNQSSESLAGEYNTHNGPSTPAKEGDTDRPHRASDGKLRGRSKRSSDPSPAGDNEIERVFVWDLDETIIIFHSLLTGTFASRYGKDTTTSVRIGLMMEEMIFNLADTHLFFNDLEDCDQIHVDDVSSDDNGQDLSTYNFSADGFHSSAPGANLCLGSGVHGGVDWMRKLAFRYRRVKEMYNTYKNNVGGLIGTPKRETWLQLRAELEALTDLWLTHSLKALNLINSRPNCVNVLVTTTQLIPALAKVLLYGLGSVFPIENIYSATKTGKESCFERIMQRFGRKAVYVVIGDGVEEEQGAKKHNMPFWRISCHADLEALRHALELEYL
# Target sequence (Q15475 whole entry, looked up): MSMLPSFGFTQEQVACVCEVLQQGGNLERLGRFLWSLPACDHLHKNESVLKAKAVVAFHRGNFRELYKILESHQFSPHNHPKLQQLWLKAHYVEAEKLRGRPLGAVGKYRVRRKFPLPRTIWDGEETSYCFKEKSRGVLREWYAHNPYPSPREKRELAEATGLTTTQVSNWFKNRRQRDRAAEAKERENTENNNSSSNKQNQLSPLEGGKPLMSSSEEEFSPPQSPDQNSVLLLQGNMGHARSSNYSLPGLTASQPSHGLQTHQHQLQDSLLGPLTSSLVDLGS
#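 GST-Six1 + His-Eya2 (5X stock: 250/500 nM); Tris pH 8.0, 300 mM NaCl, 0.05% BSA, 0.02% Tween 20; GSH donor/Ni acceptor beads; 1 h 37 °C dark; AlphaScreen readout.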
# * marks the source's active call; other numbers are inactive results; u = inconclusive; x = no result given; [ ] = remark or other dose.
# Letter code – A = TRPML1 blocker; B = PINK1 modulator; C = TRPML1 ag; D = D2 ag; E = D2 potentiator; F = Six1-Eya2 blk
CCN1CCN(CC(=O)Nc2ccc(C(C)=O)cc2)CC1
  A: -8 | B: 0.5% | C: 0.4 | D: -2.6 | E: 5 | F: -6
CC(=O)N1CCCC1c1nc2ccccc2n1Cc1ccc(F)cc1 (configuration not stated)
  A: 25 | B: 0.5% | C: -0.5 | D: x | E: x | F: x
COc1ccccc1C(=O)NCCC(=O)N1CC(=O)Nc2ccccc21
  A: -27 | B: 3.0% | C: 0.7 | D: -0.8 | E: -14 | F: 7
CC(=O)c1cccc(NC(=O)CSc2nc3ccccc3nc2Cc2ccc(F)cc2)c1
  A: 20 | B: 1.4% | C: -0.2 | D: x | E: x | F: x
O=C(Nc1nnc(Cc2c[nH]c3ccccc23)s1)c1ccc(Cl)cc1Cl
  A: 16 | B: 2.6% | C: 0.0 | D: 0.1 | E: 0 | F: -14
Cc1cc(C)c2c(=O)n(CC(=O)N3CCN(c4ccccc4)CC3)ccc2n1
  A: 17 | B: 1.3% | C: -0.3 | D: -11 | E: 3 | F: 7
COc1ccc(N(C(=O)c2cnccn2)C(C(=O)NC2CCCCC2)c2ccc(Cl)cc2)cc1 (configuration not stated)
  A: 33 | B: 1.9% | C: 0.0 | D: -4.4 | E: -6 | F: 7
O=C(Nc1ccc(N2CCCC2)cc1)c1ccc(Cl)cc1Cl
  A: 1 | B: 2.3% | C: -0.7 | D: 1.2 | E: -4 | F: 7
Fc1cccc(/C=N/Nc2cc(N3CCOCC3)ncn2)c1
  A: 19 | B: -0.2% | C: 0.0 | D: -3.8 | E: -7 | F: 7
CC(C)OC(=O)c1c(NC(=O)c2ccco2)sc2c1CCCC2
  A: -5 | B: 9.0% | C: 0.5 | D: -0.9 | E: 4 | F: 5
Cc1csc(NC(=O)CSc2nnc(-c3ccco3)n2C)n1
  A: -2 | B: 3.8% | C: 2.1 | D: -0.7 | E: 3 | F: -10
CC1(C)C(=O)N(CC(=O)Nc2ccc(Br)cc2F)c2ccccc21
  A: 9 | B: 1.0% | C: 0.3 | D: x | E: x | F: x
Cc1oc(-c2ccccc2F)nc1CS(=O)(=O)CC(=O)NCCN(C)C1CCCCC1
  A: 7 | B: -0.8% | C: 0.1 | D: -4.0 | E: -11 | F: -3
Cc1cccc2cc(CN(Cc3ccco3)C(=O)Nc3cccc(C#N)c3)c(Cl)nc12
  A: 6 | B: -3.9%[38.3 µM] | C: 1.8 | D: 3.9 | E: -4 | F: -3
COc1ccc(S(=O)(=O)N(CC(=O)NCc2ccco2)C2CCCCC2)cc1OC
  A: -4 | B: 1.2%[38.3 µM] | C: -0.4 | D: -3.3 | E: 0 | F: -4
Cc1cccc(NC(=O)CSc2nnc(C3CC3)n2CC2CCCO2)c1C (configuration not stated)
  A: -6 | B: 4.1% | C: -1.1 | D: -4.0 | E: -8 | F: 15
Cc1c[n+]([O-])ccc1Oc1ccc([N+](=O)[O-])cc1
  A: -14 | B: 0.6% | C: 1.2 | D: -4.2 | E: -5 | F: 1
CCOc1cccc2cc(C(=O)N3CCc4ccccc4C3)c(=O)oc12
  A: 27 | B: u | C: 2.2 | D: 0.1 | E: -14 | F: -6
CCS(=O)(=O)c1ccc(O)c(NC(=O)/C=C/c2ccc(Cl)cc2)c1
  A: 13 | B: 1.8% | C: 0.5 | D: -6.6 | E: -20 | F: 7
Cc1ccc(S(=O)(=O)N(C)C[C@H]2Oc3ccc(NC(=O)C4CCCCC4)cc3C(=O)N([C@H](C)CO)C[C@H]2C)cc1
  A: -7 | B: 1.1% | C: 2.7 | D: -2.1 | E: -8 | F: 1
COc1ccc(C2=CN(Cc3ccccc3)CCC2=O)cc1
  A: 0 | B: 0.5% | C: 0.5 | D: -0.2 | E: -8 | F: -21
Cn1c(=O)c2[nH]c(NCCCN3CCOCC3)nc2n(C)c1=O
  A: -3 | B: -0.6% | C: -0.1 | D: 4.6 | E: -6 | F: 7
CCCC(=O)N1CC2(CCC)CN(C(=O)CCC)CC(CCC)(C1)C2=O
  A: -9 | B: 1.5% | C: 0.1 | D: -1.3 | E: -3 | F: 12
COC(=O)[C@@]1(Cc2ccc(F)cc2)[C@H]2c3cc(C(=O)N4CCCC4)n(Cc4ccccc4)c3C[C@H]2CN1C(=O)c1ccccc1
  A: x | B: 5.7% | C: 0.3 | D: x | E: x | F: -18
COc1ccccc1N(CC(=O)NCc1ccccc1)C(=O)CCC(=O)Nc1cc(C)ccn1
  A: -2 | B: -2.3% | C: -0.4 | D: -1.2 | E: -6 | F: 2
Cc1cc(/C=C2/NC(=O)NC2=O)c(C)n1C
  A: -6 | B: -0.1% | C: 1.4 | D: -2.8 | E: -10 | F: -20
N#CCN1CCC(c2cc(-c3ccco3)n[nH]2)CC1
  A: -9 | B: 1.0% | C: -0.4 | D: 0.0 | E: -4 | F: -6
COc1ccc(-c2nsc(NC(=O)c3cccc(OC)c3)n2)cc1
  A: -8 | B: 2.7% | C: 1.1 | D: x | E: x | F: x
COc1ccc(CC(=O)NNC(=O)COc2ccc(Cl)cc2C)cc1S(=O)(=O)N1CCOCC1
  A: -4 | B: 0.0% | C: 0.1 | D: -1.3 | E: -7 | F: 6
Cc1cc(C(=O)N/N=C2\CC(=O)CC(C)(C)C2)c(C)n1-c1ccc(F)cc1
  A: 0 | B: 5.2% | C: 0.3 | D: -2.2 | E: -22 | F: -3
CS(=O)(=O)N(CC(=O)Nc1ccccc1Sc1ccccc1)c1cccc(Br)c1
  A: -3 | B: -0.1% | C: 1.8 | D: -4.8 | E: 8 | F: -6
O=C(NCCC1CCCCN1S(=O)(=O)c1ccccc1)C(=O)NCc1ccccc1F (configuration not stated)
  A: -7 | B: -0.6% | C: 0.5 | D: -2.1 | E: 4 | F: 1
CCn1cc(C(=O)N2CC(C)CC(C)C2)c(=O)c2cc(S(=O)(=O)N(C)C)ccc21 (configuration not stated)
  A: -15 | B: -0.2% | C: 0.3 | D: -3.0 | E: -3 | F: 23
O=C(Nn1c(-c2ccncc2)nc2ccccc2c1=O)c1ccc(Br)cc1
  A: -2 | B: -0.3% | C: 1.4 | D: -17 | E: -6 | F: -6

# Structures listed so far that have a Cl atom:
# Letter code – A = TRPML1 blocker; B = PINK1 modulator; C = TRPML1 ag; D = D2 ag; E = D2 potentiator; F = Six1-Eya2 blk
O=C(Nc1nnc(Cc2c[nH]c3ccccc23)s1)c1ccc(Cl)cc1Cl
  A: 16 | B: 2.6% | C: 0.0 | D: 0.1 | E: 0 | F: -14
COc1ccc(N(C(=O)c2cnccn2)C(C(=O)NC2CCCCC2)c2ccc(Cl)cc2)cc1 (configuration not stated)
  A: 33 | B: 1.9% | C: 0.0 | D: -4.4 | E: -6 | F: 7
O=C(Nc1ccc(N2CCCC2)cc1)c1ccc(Cl)cc1Cl
  A: 1 | B: 2.3% | C: -0.7 | D: 1.2 | E: -4 | F: 7
Cc1cccc2cc(CN(Cc3ccco3)C(=O)Nc3cccc(C#N)c3)c(Cl)nc12
  A: 6 | B: -3.9%[38.3 µM] | C: 1.8 | D: 3.9 | E: -4 | F: -3
CCS(=O)(=O)c1ccc(O)c(NC(=O)/C=C/c2ccc(Cl)cc2)c1
  A: 13 | B: 1.8% | C: 0.5 | D: -6.6 | E: -20 | F: 7
COc1ccc(CC(=O)NNC(=O)COc2ccc(Cl)cc2C)cc1S(=O)(=O)N1CCOCC1
  A: -4 | B: 0.0% | C: 0.1 | D: -1.3 | E: -7 | F: 6
